Screens deposited in PubChem by several laboratories.
CSC inhib – cancer stem cell viability inhibitors, primary screen, luminescence; cancer stem cell-like cells viability; inhibition, % at 7.5 µM; 1.1% of 300,000 active;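 active = mean at 75% or more and at least half the replicates too; inconclusive = mean and replicates disagree; tested in HMLE shEcad cells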;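 also: 0% = median of negative and 100% = median of positive control wells; the first replicate is given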
eIF4H FP inh – human eIF4H binding inhibitors, primary screen, translation initiation inhibitor project, biochemical, uHTS, fluorescence polarization; Eukaryotic translation initiation factor 4H (Homo sapiens), Q15056; eIF4H fluorescence polarization binding assay; inhibition, % at 35 µM; 0.94% of 290,000 active; AID 2012, 2009;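 active = 50% or more with normal probe brightness, or confirmed in later tests; inconclusive = above 50% with abnormal brightness, or retests that disagree; inactive = below 50% or failed in later tests; about a fifth of its hits are not listed in these tables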;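 also: calls also rest on retests at 20 µM and on dose response follow-up; 0% = protein and probe with vehicle and 100% = probe without protein; strong numbers were not always called active; many hits fall short of the cut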
MT1-MMP act inh – blockers of MT1-MMP proenzyme processing, primary screen, HT1080 RFP-PRO-GFP cells, GFP/RFP fluorescence | Matrix metalloproteinase-14 (Homo sapiens), P50281 | GFP/RFP ratio fluorescence, overnight; percent of plate control window, DMSO zero | GFP/RFP ratio change, % at 20 µM | 0.061% of 360,000 active;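 active = GFP/RFP ratio change of at least 30% with cell ATP level not reduced by more than half and red fluorescence within 50% of control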; also: strong numbers were not always called active
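system = RFP-PRO-GFP reporter HT1080 cells | dosing = 20 µM single dose, 1% DMSO | timing = overnight cell settling, then overnight compound exposure, 37 °C, 5% CO2 | read-out basis = GFP/RFP fluorescence ratio | controls = DMSO and RFP-L50D-GFP cell wells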
Yeast UUG start – modulators of yeast start codon fidelity, primary screen, whole organism, S. cerevisiae, single point, plate reader; activity score, % at 18.7 µM; 0.13% of 350,000 active; S. cerevisiae UUG-firefly luciferase reporter, luminescence/redox ratio;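 active = replicate mean at a twofold rise or more, about +100% in these data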;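 also: firefly luciferase made from a UUG start codon reports start codon fidelity; reporter light over untreated wells divided by growth signal over untreated wells; some hits fall short of that in this replicate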
PABP polyA inh – PABP poly(A) RNA binding inhibitors, primary screen, biochemical, fluorescence polarization, uHTS | inhibition, % at 35 µM | AID 2014, 2009 | 1% of 290,000 active | Polyadenylate-binding protein 1 (Homo sapiens), P11940;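 active = 50% or more with normal probe brightness, or confirmed in later tests; inconclusive = above 50% with abnormal brightness, or retests that disagree; inactive = below 50% or failed in later tests; about a fifth of its hits are not listed in these tables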;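 also: calls also rest on retests at 20 µM and on dose response follow-up; controls were probe without protein and protein plus probe with vehicle; some compounds called inactive have numbers as strong as hits; many hits fall short of the cut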
Target sequence (P11940 whole entry, looked up): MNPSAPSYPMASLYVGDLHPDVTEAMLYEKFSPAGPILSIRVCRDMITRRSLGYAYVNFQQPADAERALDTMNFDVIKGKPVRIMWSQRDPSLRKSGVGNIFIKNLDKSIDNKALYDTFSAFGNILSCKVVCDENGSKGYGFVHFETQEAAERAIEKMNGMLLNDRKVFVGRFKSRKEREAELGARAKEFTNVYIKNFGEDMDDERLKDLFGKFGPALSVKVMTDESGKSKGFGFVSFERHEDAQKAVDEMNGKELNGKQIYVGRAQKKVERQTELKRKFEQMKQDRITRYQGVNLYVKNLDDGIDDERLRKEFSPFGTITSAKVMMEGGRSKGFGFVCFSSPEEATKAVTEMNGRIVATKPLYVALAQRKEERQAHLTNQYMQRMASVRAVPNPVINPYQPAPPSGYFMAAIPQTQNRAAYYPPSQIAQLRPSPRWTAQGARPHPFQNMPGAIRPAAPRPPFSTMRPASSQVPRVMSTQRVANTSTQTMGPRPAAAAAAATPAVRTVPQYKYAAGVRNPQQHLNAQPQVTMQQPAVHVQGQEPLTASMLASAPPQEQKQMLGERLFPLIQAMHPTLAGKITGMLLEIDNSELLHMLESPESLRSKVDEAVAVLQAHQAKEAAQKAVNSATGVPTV
Env fusion inh – inhibitors of HIV-1 Env-driven cell-cell fusion, primary screen, HeLa-JRFL effector, CEM21 target cells, luciferase. inhibition, % at 12.3 µM. 1.1% of 360,000 active;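 active = mean replicate inhibition score of at least 50 and every replicate individually at or above 50; inconclusive = only one of the two criteria met; inactive = mean below 50 and not all replicates reaching 50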;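 also: 0% = plate neutral controls and 100% = maraviroc near 300 nM; one replicate is shown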
Rce1 inhib – yeast Rce1p protease inhibitors, primary screen, biochemical, fluorescence, cell-free homogeneous | yeast membranes, quenched prenylated peptide cleavage fluorescence | calls only | CAAX prenyl protease 2 (Saccharomyces cerevisiae (strain ATCC 204508 / S288c)), Q03530 | AID 2563, 2010 | 0.27% of 290,000 active;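 active = fall in fluorescence gain of 50% or more versus controls, with final raw signal at or below 3038400; inconclusive = same 50% fall but final raw signal above 3038400; inactive = fall in fluorescence gain under 50%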;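 also: plate controls were neutral control wells for no effect and wells lacking membranes for full effect; tested at 10 µM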
MT1-MMP act inh RFP – further read-out of MT1-MMP act inh, marked with its call; RFP signal change, %; measured here: RFP expression control read;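 0 = vehicle wells; hits needed this value within 50% of zero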
The depositor's hits bear a star; & = joins results of further samples. This is a subset, so the mix of outcomes need not match the whole.

Cn1c(=NC(=O)c2ccc(S(=O)(=O)N3CCCc4ccccc43)cc2)sc2cc(S(C)(=O)=O)ccc21 was read as CSC inhib 0, eIF4H FP inh -8, MT1-MMP act inh 6, Yeast UUG start -19, PABP polyA inh -6, Env fusion inh 7, Rce1 inhib inactive and MT1-MMP act inh RFP 0.
Screening Cc1cnc(C(=O)OCC(=O)Nc2cc(Cl)ccc2C#N)cn1 returned MT1-MMP act inh -5, Yeast UUG start -13, Env fusion inh -8 and MT1-MMP act inh RFP 1.
For Cn1c(SCC(=O)Nc2ccc3cn[nH]c3c2)nnc1-c1cccs1 the results were CSC inhib -1, eIF4H FP inh -2, MT1-MMP act inh -5, Yeast UUG start -3, PABP polyA inh 4, Rce1 inhib inactive and MT1-MMP act inh RFP -5.
`Cc1ccc(CNC(=O)C2CCN(S(=O)(=O)c3c(C)noc3/C=C/c3ccco3)CC2)cc1` gave CSC inhib -5, eIF4H FP inh 15, MT1-MMP act inh -8, Yeast UUG start -9, PABP polyA inh -8, Env fusion inh -1, Rce1 inhib inactive and MT1-MMP act inh RFP -5.
Screening c1cc2nc(C34CC5CC(CC(C5)C3)C4)[nH]c2cn1 returned CSC inhib 1, eIF4H FP inh 14, MT1-MMP act inh -2, PABP polyA inh 0, Env fusion inh 4 and MT1-MMP act inh RFP -1.
For COc1cccc(C2C(C#N)=C(N)Oc3cc(C)n(Cc4ccco4)c(=O)c32)c1 (configuration not stated) the results were CSC inhib -2, eIF4H FP inh 51*, MT1-MMP act inh -12, Yeast UUG start -12, PABP polyA inh 83*, Rce1 inhib inactive and MT1-MMP act inh RFP 13.
CCCc1cc(=O)[nH]c(SCC(=O)N(C)CC(=O)Nc2ccc(C)cc2)n1 was read as CSC inhib 2, eIF4H FP inh -6, MT1-MMP act inh 0, PABP polyA inh 4, Env fusion inh 15, Rce1 inhib inactive and MT1-MMP act inh RFP 3.
`CNS(=O)(=O)c1cc(NC(=O)c2cncn2-c2ccccc2)ccc1C` gave CSC inhib 18, eIF4H FP inh -1, MT1-MMP act inh 3, Yeast UUG start -25, PABP polyA inh 4, Env fusion inh 3, Rce1 inhib inactive and MT1-MMP act inh RFP -1.
For CCN1CCN(c2ccc(S(=O)(=O)N3CCCCC3)cc2NC(=O)c2cc3ccccc3o2)CC1 the results were CSC inhib -4, MT1-MMP act inh 0, Yeast UUG start -2, Env fusion inh 9, Rce1 inhib inactive and MT1-MMP act inh RFP -6.
O=C(O)c1ccccc1-c1ccccc1C(=O)Nc1nc2ccccc2s1 was read as CSC inhib 0, eIF4H FP inh -2, MT1-MMP act inh -6, Yeast UUG start -32, PABP polyA inh 8, Env fusion inh -28, Rce1 inhib inactive and MT1-MMP act inh RFP 0.
N/C(COc1cccc(Cl)c1)=N\O was read as CSC inhib -7, eIF4H FP inh 1, MT1-MMP act inh 7, Yeast UUG start -20, PABP polyA inh 5, Env fusion inh 0, Rce1 inhib inactive and MT1-MMP act inh RFP 5.
For COc1cc(OC)cc(C(=O)N2CC(=O)Nc3ccccc32)c1 the results were CSC inhib 56, eIF4H FP inh -6, MT1-MMP act inh 10, Yeast UUG start -19, PABP polyA inh 1, Env fusion inh -40, Rce1 inhib inactive and MT1-MMP act inh RFP -4.
For FC(F)Oc1ccc(-c2csc(NNC3=NCCCCC3)n2)cc1 the results were CSC inhib inconclusive, eIF4H FP inh 1, MT1-MMP act inh 12, Yeast UUG start -28, PABP polyA inh -4, Env fusion inh 0, Rce1 inhib inactive and MT1-MMP act inh RFP -3.
For CCOc1cccc(-c2c(C(=O)N/N=C/c3c(F)cccc3Cl)nnn2-c2nonc2N)c1 the results were CSC inhib 7, eIF4H FP inh -14, MT1-MMP act inh -7, Yeast UUG start -18, PABP polyA inh 12, Env fusion inh -4, Rce1 inhib active and MT1-MMP act inh RFP -3.
O=C(CNC(=O)Cc1ccccc1)NCC(=O)OCC(=O)c1cccc2ccccc12 was read as CSC inhib -3, eIF4H FP inh -3, MT1-MMP act inh -3, Yeast UUG start 14, PABP polyA inh -6, Env fusion inh -73, Rce1 inhib inactive and MT1-MMP act inh RFP 3.
For CCC(C(=O)Nc1ccc(C(=O)O)cc1NC(=O)C(CC)c1ccccc1)c1ccccc1 (configuration not stated) the results were CSC inhib -21, eIF4H FP inh -12, MT1-MMP act inh -1, Yeast UUG start -4, PABP polyA inh 7, Env fusion inh -63, Rce1 inhib inactive and MT1-MMP act inh RFP -2.
Screening Fc1ccc(CSc2nnc(-c3ccco3)o2)cc1 returned CSC inhib -5, eIF4H FP inh -7, MT1-MMP act inh 1, PABP polyA inh 0, Env fusion inh -7, Rce1 inhib inactive and MT1-MMP act inh RFP -2.
For O=C1C(Cl)=C(NCCCO)C(=O)c2ccccc21 the results were CSC inhib 24, eIF4H FP inh -8, MT1-MMP act inh 8, Yeast UUG start 14, PABP polyA inh -4, Rce1 inhib inactive and MT1-MMP act inh RFP 2.
Screening CC1(C)O[C@H]2OC([C@H](O)CON3C(=O)c4ccccc4C3=O)[C@H](O)[C@H]2O1 (some centres not stated) returned CSC inhib -5, eIF4H FP inh -3, PABP polyA inh -11 and Env fusion inh -18.
`Brc1ccc(-c2noc(CCc3ccccc3)n2)o1` gave CSC inhib 0, eIF4H FP inh -6, MT1-MMP act inh -3, Yeast UUG start -6, PABP polyA inh 1, Env fusion inh -22, Rce1 inhib inactive and MT1-MMP act inh RFP 1.
Screening CCOC(=O)c1ccc(-c2ccc(C(=O)Nc3cccnc3)o2)cc1 returned CSC inhib -4, eIF4H FP inh -9, MT1-MMP act inh 0, Yeast UUG start 27, PABP polyA inh 7, Rce1 inhib inactive and MT1-MMP act inh RFP -3.
Screening CCOc1ccc(CCNS(=O)(=O)c2ccc3c(c2)N(C(C)=O)CCO3)cc1OCC returned CSC inhib 2, eIF4H FP inh -5, MT1-MMP act inh 2, Yeast UUG start -16, PABP polyA inh 5, Env fusion inh 7, Rce1 inhib inactive and MT1-MMP act inh RFP 3.
Screening Cc1ccc(-c2nc(CS(=O)(=O)CC(=O)NCc3cccc(F)c3)c(C)o2)cc1 returned eIF4H FP inh 3, MT1-MMP act inh 1, Yeast UUG start -15, PABP polyA inh -15, Env fusion inh -6, Rce1 inhib inactive and MT1-MMP act inh RFP 2.
CCOC(=O)C1=C(C)NC(=S)NC1c1ccco1 (configuration not stated) was read as CSC inhib -13, eIF4H FP inh 30, MT1-MMP act inh 1, Yeast UUG start -26, PABP polyA inh 15, Env fusion inh 4, Rce1 inhib inactive and MT1-MMP act inh RFP 3.
Cc1onc(-c2ccccc2)c1C(=O)Nc1ccccc1NC(=O)c1c(-c2ccccc2)noc1C was read as CSC inhib 9, eIF4H FP inh -6, MT1-MMP act inh -2, Yeast UUG start -10, PABP polyA inh -4, Env fusion inh 4, Rce1 inhib inactive and MT1-MMP act inh RFP -2.
Screening Cc1oc(-c2ccccc2F)nc1CS(=O)(=O)CC(=O)NC1CCCC1 returned CSC inhib 1, eIF4H FP inh -6, MT1-MMP act inh 0, Yeast UUG start -9, PABP polyA inh -5, Env fusion inh 11, Rce1 inhib inactive and MT1-MMP act inh RFP -1.
For CN(C)/C=N/c1c(C#N)cnn1C the results were CSC inhib -2, eIF4H FP inh -2, MT1-MMP act inh 1, Yeast UUG start -22, PABP polyA inh 1, Env fusion inh 1, Rce1 inhib inactive and MT1-MMP act inh RFP 0.
For CCOC(=O)c1ccc(N2CCN(C(C)=O)CC2)c(NC(=O)c2cccnc2)c1 the results were CSC inhib -6, eIF4H FP inh -10, MT1-MMP act inh 1, Yeast UUG start 0, PABP polyA inh -6, Env fusion inh -1, Rce1 inhib inactive and MT1-MMP act inh RFP 3.
For c1ccc(-c2nnsc2-c2ncc[nH]2)cc1 the results were eIF4H FP inh -2, MT1-MMP act inh -4, PABP polyA inh 19, Env fusion inh 9, Rce1 inhib inactive and MT1-MMP act inh RFP -1.
O=C(CSc1ccccc1)Nc1nccs1 was read as eIF4H FP inh -12, MT1-MMP act inh 1, PABP polyA inh 6, Env fusion inh -11, Rce1 inhib inactive and MT1-MMP act inh RFP 4.
For COc1ccc(-c2cc(C(=O)NCCCN3CCOCC3)on2)cc1OC the results were CSC inhib -17, eIF4H FP inh -10, MT1-MMP act inh 3, Yeast UUG start -8, PABP polyA inh 2, Env fusion inh -7, Rce1 inhib inactive and MT1-MMP act inh RFP 7.
Screening COCCNC(=O)c1ccc2c(c1)NC(=O)CS2 returned CSC inhib -4, eIF4H FP inh 1, MT1-MMP act inh 0, PABP polyA inh 5, Env fusion inh -32, Rce1 inhib inactive and MT1-MMP act inh RFP 0.
`COc1ccc(OC)c(N2C(=O)c3cccnc3C2=O)c1` gave CSC inhib -15, eIF4H FP inh -6, MT1-MMP act inh 0, Yeast UUG start -14, PABP polyA inh -1, Env fusion inh -2, Rce1 inhib inactive and MT1-MMP act inh RFP 7.
For CC(=O)Oc1ccc(/C=C(\NC(=O)c2cccc(Br)c2)C(=O)Nc2ccc(C(=O)O)cc2)cc1 the results were MT1-MMP act inh -3, Yeast UUG start -15, Env fusion inh 8, Rce1 inhib inactive and MT1-MMP act inh RFP 1.
`NS(=O)(=O)c1ccc(NC(=S)Nc2ccc(C(=O)N3CCCCC3)cc2)cc1` gave CSC inhib -6, eIF4H FP inh 16, MT1-MMP act inh -2, PABP polyA inh -3, Env fusion inh -13, Rce1 inhib inactive and MT1-MMP act inh RFP -4.
For O=c1cc(CN2CCN(c3ccccn3)CC2)nc2sccn12 the results were CSC inhib -3, eIF4H FP inh -8, MT1-MMP act inh -4, PABP polyA inh 1, Env fusion inh -8, Rce1 inhib inactive and MT1-MMP act inh RFP 3.
Screening CC1(C)c2ccccc2N2CC(=O)NC21/C=C/c1ccco1 (configuration not stated) returned CSC inhib -1, eIF4H FP inh 24, MT1-MMP act inh -1, Yeast UUG start 3&1, PABP polyA inh -3, Rce1 inhib inactive and MT1-MMP act inh RFP 17.
`O=C(N/N=C/c1ccccc1OC(F)F)C1=COCCO1` gave CSC inhib -13, eIF4H FP inh 5, MT1-MMP act inh 1, Yeast UUG start -3, PABP polyA inh 2, Env fusion inh 5, Rce1 inhib inactive and MT1-MMP act inh RFP 2.
O=C(O)CNC(=S)N(Cc1cccs1)C1CCCCC1 was read as CSC inhib -4, eIF4H FP inh -3, MT1-MMP act inh 0, Yeast UUG start -19, PABP polyA inh -7, Env fusion inh -1, Rce1 inhib inactive and MT1-MMP act inh RFP 0.
`S=C1NC2=C(CCCC2=C2SCCS2)C(c2ccccc2)N1` (configuration not stated) gave CSC inhib 42, eIF4H FP inh -4, MT1-MMP act inh 17, PABP polyA inh 1, Env fusion inh -44, Rce1 inhib inactive and MT1-MMP act inh RFP 15.
For O=C1CC(N(O)C2CC(=O)N(Cc3ccccc3)C2=O)C(=O)N1Cc1ccccc1 (configuration not stated) the results were CSC inhib 5, eIF4H FP inh -5, MT1-MMP act inh 2, Yeast UUG start 15, PABP polyA inh -4, Env fusion inh -42, Rce1 inhib inactive and MT1-MMP act inh RFP 7.
